T cruzi repl = T. cruzi replication inhibition; inhibition, % (concentration not given with the values); hit rate 1.4% among 300,000; T. cruzi beta-gal in NIH3T3, luminescence, 90 h;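 active means mean inhibition across valid replicates above about 55%, limit read from the data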;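 further: signal also drops with host cell toxicity which is not excluded here; 0% = plate median of DMSO wells and 100% = zero luminescence signal; higher percent means less beta-gal luminescence so fewer parasites; stock transfer was 50 nL into about 50 µL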
A1 inh = inhibitors of the anti-apoptotic protein A1, read as caspase activation; MEF A1-2A-BIM cells, Caspase-Glo 3/7 luminescence, 3 h; percent of clofoctol response, vehicle zero; caspase activation, % (test concentration not listed); hit rate 0.066% among 330,000;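 active means over half of replicate activation scores above 10%, or exactly half above 10 with the replicate mean above 10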;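 further: wells of about 30 µL received 50 nL stock; many hits fall short of the cut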
FGF22 binding = binders of recombinant human FGF22 by thermal shift. Q9HCT0. SYPRO orange fluorescence; percent of sucrose octasulfate shift, DMSO zero. calls only at 9.99 µM. hit rate 1.5% among 340,000. AID 651658;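 active means melting point raised past a set limit in the mean and every replicate; three in four hits are not shown here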
Target sequence (Q9HCT0 whole entry, looked up): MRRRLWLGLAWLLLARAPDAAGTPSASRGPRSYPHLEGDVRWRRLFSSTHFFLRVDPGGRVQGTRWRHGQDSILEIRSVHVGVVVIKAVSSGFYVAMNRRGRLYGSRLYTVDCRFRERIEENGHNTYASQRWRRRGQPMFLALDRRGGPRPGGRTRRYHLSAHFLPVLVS
rRNA inh HTS = inhibitors of bacterial rRNA selective over humanized ribosomes. GFP signal change (wild-type ribosome), % (concentration not given with the values). hit rate 1.6% among 350,000. E. coli WT GFP vs humanized-ribosome RFP mutants, fluorescence, 24 h; hits give low values; DMSO median 0, no signal -100;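 active means significant combined selectivity score with lowered wild-type GFP, culture density cut under 30%, mutant RFP and density less affected; inactive means any of these conditions unmet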; further: one replicate is shown; some compounds called inactive have numbers as strong as hits
Ecoli growth = inhibitors of Escherichia coli growth; hit rate 0.21% among 330,000; OD600 absorbance (no concentration beside the values); OD600, 23 h; hits give low values; AID 1053175;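 active means OD600 absorbance below the run mean of sample wells minus 3.6 SD, in any replicate, cut at about 0.56 in these data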;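 further: stock transfer was 300 nL into about 60 µL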
MLL AF4-AF9 inh = MLL-AF4/AF9 protein interaction inhibition; AlphaScreen, biotin-AF4 peptide binding to FLAG-AF9; P42568; hit rate 0.47% among 350,000; inhibition, % at 10 µM;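 active means every replicate reaching a set inhibition limit, whatever the replicate mean, cut at about 25% in these data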;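 further: 0% = plate neutral control median and 100% = total signal loss; the record names both 10 and 1 µM as test concentration; the first replicate is given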
UCH37 inh = blocks the human deubiquitinase UCH37. Q9Y5K5. inhibition, % (concentration not given with the values). purified proteasome/UCH37, Ub-AMC cleavage fluorescence. hit rate 0.33% among 330,000. AID 588478;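 active means mean of two replicates above 20%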;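 further: 0% = compound-free wells with enzyme and 100% = wells lacking proteasome; stock transfer was 100 nL into about 20 µL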
Target sequence (Q9Y5K5 whole entry, looked up): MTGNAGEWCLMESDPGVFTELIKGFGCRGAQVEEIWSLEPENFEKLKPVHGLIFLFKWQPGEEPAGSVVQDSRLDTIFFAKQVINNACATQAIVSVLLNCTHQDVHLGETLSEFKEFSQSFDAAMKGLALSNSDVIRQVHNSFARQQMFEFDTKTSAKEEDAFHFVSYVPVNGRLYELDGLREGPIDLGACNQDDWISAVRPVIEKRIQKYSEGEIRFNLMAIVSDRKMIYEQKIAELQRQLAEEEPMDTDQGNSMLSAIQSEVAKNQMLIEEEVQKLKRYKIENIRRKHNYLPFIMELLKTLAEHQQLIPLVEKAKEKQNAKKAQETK
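assay system = human UCH37 enzyme supplied as purified proteasome complex | amount = proteasome at 0.15 nM in the dispensed enzyme solution | schedule = 30 min compound-proteasome preincubation then 25 min substrate reaction, room temperature | measured by = fluorescence, ex 355 nm, em 460 nm | benchmarks = no-proteasome wells (full inhibition) and compound-free wells (no inhibition)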
Beta cell apopt = beta cell apoptosis inhibition. hit rate 0.8% among 300,000. protection from apoptosis, % (concentration not given with the values). INS-1E cytokine-induced death, ATP luminescence, 48 h; percent of positive-control rescue, neutral wells zero. AID 435005;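 active means all replicates at 75% or more, or half of them and the mean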;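 further: 0% = cytokine-treated negative control wells and 100% = positive control rescue; higher means more ATP so stronger rescue from cytokine killing; wells of about 40 µL received 100 nL stock; the first replicate is given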
rRNA inh HTS OD600 = further read-out of rRNA inh HTS, marked with its call; OD600 change, %; measured here: OD600 growth;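 optical density of the mix in the first replicate; 0 = DMSO median and -100 = no signal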
rRNA inh HTS RFP = further read-out of rRNA inh HTS, marked with its call; RFP signal change, %; measured here: RFP humanized mutant strains;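 first replicate; 0 = DMSO median and -100 = no signal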
An asterisk follows results filed as active; i = inactive; . = no result given.

SMILES	T cruzi repl	A1 inh	FGF22 binding	rRNA inh HTS	rRNA inh HTS OD600	rRNA inh HTS RFP	Ecoli growth	MLL AF4-AF9 inh	UCH37 inh	Beta cell apopt
Clc1cccc(Cl)c1C[n+]1cccc2ccccc21	.	2.2	i	15	2	-0.4	0.68	-1.6	-3.3	.
CCN1C(=O)[C@H]2[C@@H](c3ccc(C)cc3)N3C(=O)N(c4cccc(Br)c4)C(=O)[C@@]3(CC(C)C)[C@H]2C1=O	-5	-0.5	i	7	1	1.9	.	-1.5	2.3	-5
CC(=O)Nc1nc(CCC(C)C)cc2c1c(=O)oc1ccccc12	-12	0.5	.	.	.	.	0.71	-5.4	-37	0
Cn1c(=O)c2c(ncn2CC(=O)OCC(=O)NC(c2ccccc2)c2ccccc2)n(C)c1=O	-17	0.0	i	5	-4	3.7	0.66	5.9	1.3	0
CCN=c1sc(C(=O)Nc2ccccc2)c(C)n1CC	-19	0.6	.	5	-13	-2.0	0.69	1.4	3.0	-4
O=C(CC1C(=O)NCCN1Cc1ccccc1C(F)(F)F)NC1CCC1 (centres undefined)	1	1.0	i	7	-4	2.8	0.73	2.0	-1.9	-1
COc1c(O)cccc1[C@H](O)C1CCN(CCc2ccc(F)cc2)CC1	-13	0.1	i	42	18	-5.1	.	-3.6	4.4	-3
CCOC(=O)N1CCN(C(=O)C2CCCN(S(=O)(=O)c3c(C)cc(C)cc3C)C2)CC1 (centres undefined)	-9	1.3	i	-12	-8	4.4	0.66	1.2	-0.8	-1
CN(CC1CCN(CCc2cccc(C(F)(F)F)c2)CC1)C(=O)c1ccccc1	49	1.5	i	1	1	5.2	0.67	0.3	5.7	-4
CC(=O)N1CCCc2cc(S(=O)(=O)N3CCCC(C(=O)NCc4ccccc4)C3)ccc21 (centres undefined)	6	0.5	i	-3	-3	0.5	0.67	-2.0	3.4	-9
O=C(N/N=C\C=C\c1ccc([N+](=O)[O-])o1)c1cccs1	78*	1.0	i	-58	-80	-19	.	-1.6	.	4
COC(=O)C1=C(C(=O)OC)[C@@H]2N(C)c3ccccc3[C@@]23C[C@@H](C(=O)OC)N(C(=O)CC(C)C)C3=N1	13	0.6	i	-1	-10	-6.3	.	21	42*	2
N#Cc1nc(COc2ccc(Cl)cc2)oc1NCc1ccc2c(c1)OCO2	43	0.5	.	.	.	.	0.7	.	4.9	-8
CCC(=O)N1CCN(c2ccccc2NC(=O)COc2ccc(C(C)C)cc2)CC1	4	0.1	i	-44	-69	-12	0.71	0.4	3.3	-5
COc1ccccc1CNC(=O)[C@H](C)NC(=O)C1CCN(C(=O)[C@H](CCSC)NC(=O)OC(C)(C)C)CC1	11	0.5	i	.	.	.	0.67	3.5	0.4	-3
Cc1ccc(NC(=O)C2CCN(c3nc(C)cc(C)n3)CC2)cc1	-6	1.1	i	24	29	2.1	0.69	-1.1	0.7	0
COc1ccc(OC)c(CCNC(=O)Cn2cccc2C(=O)c2ccccc2)c1	-15	2.6	i	-6	-11	-1.5	0.7	2.9	3.9	-4
CC1=C(C(N)=O)C(c2ccco2)C(C(N)=O)=C(C)N1	-3	-1.2	.	.	.	.	0.76	.	1.0	-3
Cc1ccccc1-n1ncc2c1CC(C)(C)CC2NC(=O)c1cn[nH]c1C (centres undefined)	-5	.	i	12	5	5.1	0.69	-3.9	0.4	.
Cc1cc(C)c2c(n1)sc1c(=O)n(-c3ccccc3)c(=O)[nH]c12	-12	-0.2	.	.	.	.	0.69	.	-269	-2
Oc1ccccc1N=Cc1c(O)ccc2oc3c(c12)CCCC3	-1	0.1	i	3	0	55	.	-1.4	.	-2
O=C(NC1CCN(C(=O)C2CCCCC2)CC1)c1ccccc1	12	0.2	i	15	10	1.5	0.61	0.2	-2.0	1
Cc1ccc(-n2c(C)c([N+](=O)[O-])c3ccc(O)cc32)cc1	-5	-0.1	i	1	1	5.5	0.66	.	4.1	-12
CCn1c2ccccc2c2cc(NC(=O)CNC)ccc21	-4	0.8	i	-2	3	4.6	0.65	13	7.0	1
CC(C)CN(C(=O)COC(=O)Cn1cnc2ccccc2c1=O)C1CCS(=O)(=O)C1 (centres undefined)	2	0.9	.	.	.	.	0.65	.	-4.1	-3

Reprinted from the part before: 6 entries, followed by the next part.
SMILES	T cruzi repl	A1 inh	FGF22 binding	rRNA inh HTS	rRNA inh HTS OD600	rRNA inh HTS RFP	Ecoli growth	MLL AF4-AF9 inh	UCH37 inh	Beta cell apopt
Cc1cc(C)c2c(n1)sc1c(=O)n(-c3ccccc3)c(=O)[nH]c12	-12	-0.2	.	.	.	.	0.69	.	-269	-2
Oc1ccccc1N=Cc1c(O)ccc2oc3c(c12)CCCC3	-1	0.1	i	3	0	55	.	-1.4	.	-2
O=C(NC1CCN(C(=O)C2CCCCC2)CC1)c1ccccc1	12	0.2	i	15	10	1.5	0.61	0.2	-2.0	1
Cc1ccc(-n2c(C)c([N+](=O)[O-])c3ccc(O)cc32)cc1	-5	-0.1	i	1	1	5.5	0.66	.	4.1	-12
CCn1c2ccccc2c2cc(NC(=O)CNC)ccc21	-4	0.8	i	-2	3	4.6	0.65	13	7.0	1
CC(C)CN(C(=O)COC(=O)Cn1cnc2ccccc2c1=O)C1CCS(=O)(=O)C1 (centres undefined)	2	0.9	.	.	.	.	0.65	.	-4.1	-3
CCc1ccc(OCCCC(=O)Nc2ccc(N3CCOCC3)cc2)cc1	1	0.1	i	11	9	0.3	0.65	-1.3	4.7	-1
Cc1ccc(C(=O)C(C)OC(=O)Cn2[nH]c(=O)c3ccccc3c2=O)cc1 (centres undefined)	-3	-0.9	i	3	10	-2.3	0.7	-0.8	4.6	2
Cc1ccc(CCC2C3=C(CCCC3=O)OC3=C2C(=O)CCC3)cc1	1	-0.5	i	-1	-1	-6.3	0.72	-0.5	5.7	-2
CC(=O)Nc1cc2nn(-c3ccccc3)nc2cc1C	-8	-6.7	.	5	-2	1.8	0.68	-3.4	-95	.
COC(=O)c1c(C)nc(C)c(C(=O)OC)c1-c1cccs1	-19	0.8	i	-10	-6	-0.4	0.7	-0.6	0.6	1
O=c1c(C=NCCCO)c(-c2ccccc2)[nH]n1-c1nc2ccccc2s1	-8	-0.5	i	-43	-36	3.1	0.71	3.4	2.2	3
CC(=O)NC(Cc1c[nH]c2ccccc12)C(=O)OCC(=O)Nc1cc(C)on1 (centres undefined)	-5	0.1	.	.	.	.	0.75	.	2.1	7
O=C(Nc1ccccc1Oc1ccsc1C(=O)O)c1ccccc1	-5	1.2	i	7	3	1.8	0.68	-3.1	5.5	-5
CCn1c(COc2cccc3ccccc23)nnc1SCC(N)=O	-15	-0.3	.	.	.	.	0.69	.	-0.4	-10
O=C(O)CCCCCNS(=O)(=O)c1ccc(Cl)cc1	6	0.1	.	8	6	-3.4	0.68	-42	4.4	-3
COc1ccc(NC(=O)c2nc(C)c(C3(C)CC(c4cccnc4)=NO3)s2)cc1 (centres undefined)	4	0.6	i	-5	-2	0.1	0.67	.	-0.2	13
Cc1c(C(=O)NCc2cccnc2)oc2ccccc12	4	1.4	.	.	.	.	0.72	.	3.4	-1
CC1CCC(NCc2ccco2)CC1 (centres undefined)	-6	-0.1	.	.	.	.	0.7	.	2.2	0
CCN(CC)S(=O)(=O)c1cccc(N2CC(O)=C(c3ccccc3)C2=N)c1	3	0.6	i	-1	-7	-10	0.69	-3.3	3.5	3
CC(=O)N1CCN(c2ccc(NCc3cccs3)cc2)CC1	.	-0.6	.	.	.	.	0.76	.	-0.4	-5
COc1ccc(CNC(=O)c2ccccc2SCC(=O)N2CCCC2)cc1OC	-6	0.6	i	13	13	2.0	0.61	-14	-1.7	1
COc1cccc(C2N(c3cccc(Cl)c3)C(=O)C3CCCN32)c1 (centres undefined)	4	0.4	i	1	1	2.0	0.69	-1.7	5.0	-7
CCCC(=O)c1cc(F)c(N2CCOCC2)cc1C	-5	0.3	.	.	.	.	0.67	.	1.0	1
Cc1ccc(CNc2nc(N)c([N+](=O)[O-])c(Nc3ccc(F)cc3)n2)cc1	-10	0.0	.	.	.	.	0.75	.	6.1	-6
Cc1cc(=O)n2nc(N3CCCC(C(=O)NCc4ccccc4)C3)sc2n1 (centres undefined)	-15	0.8	i	3	0	-1.3	0.76	-5.5	3.3	-9
O=C(CNC(=O)N1CC(=O)Nc2ccccc21)NCc1ccc(Cl)cc1	-14	0.8	i	2	-3	-0.5	0.69	-7.9	-0.4	-3
COc1ccc(CCNC(=O)COC(=O)/C=C/c2ccc(OC)c(OC)c2)cc1	0	-0.6	i	-17	-16	-4.5	0.72	-4.2	-11	-7
CCN1CCC(C(N)=O)CC1	-19	1.0	.	.	.	.	0.79	.	-2.3	-8
CC(=O)c1sc(NC(=O)c2cccnc2Cl)nc1C	-10	-4.4	i	17	13	-0.2	.	-2.1	.	-3

Taken from above.
UCH37 inh result of CC1=C(C(N)=O)C(c2ccco2)C(C(N)=O)=C(C)N1 = 1.0
rRNA inh HTS RFP result of Cc1ccc(CCC2C3=C(CCCC3=O)OC3=C2C(=O)CCC3)cc1 = -6.3
Beta cell apopt result of CC(=O)NC(Cc1c[nH]c2ccccc12)C(=O)OCC(=O)Nc1cc(C)on1 (centres undefined) = 7
MLL AF4-AF9 inh result of CC(=O)Nc1cc2nn(-c3ccccc3)nc2cc1C = -3.4
T cruzi repl result of CC1CCC(NCc2ccco2)CC1 (centres undefined) = -6
UCH37 inh result of CCN1C(=O)[C@H]2[C@@H](c3ccc(C)cc3)N3C(=O)N(c4cccc(Br)c4)C(=O)[C@@]3(CC(C)C)[C@H]2C1=O = 2.3

Record cards (already shown).
`CCCC(=O)c1cc(F)c(N2CCOCC2)cc1C` is listed with T cruzi repl = -5; A1 inh = 0.3; FGF22 binding = .; rRNA inh HTS = .; rRNA inh HTS OD600 = .; rRNA inh HTS RFP = .; Ecoli growth = 0.67; MLL AF4-AF9 inh = .; UCH37 inh = 1.0; Beta cell apopt = 1
`COc1ccc(CNC(=O)c2ccccc2SCC(=O)N2CCCC2)cc1OC` is listed with T cruzi repl = -6; A1 inh = 0.6; FGF22 binding = i; rRNA inh HTS = 13; rRNA inh HTS OD600 = 13; rRNA inh HTS RFP = 2.0; Ecoli growth = 0.61; MLL AF4-AF9 inh = -14; UCH37 inh = -1.7; Beta cell apopt = 1

An excerpt; the hit share may differ from the screen's.
